# Screening data: PubChem, ICCB-Longwood Screening Facility, Harvard Medical School
# MgrA DNA FP = S. aureus MgrA-DNA binding modulation | fluorescence polarization | inhibition, %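 (about 10 µg/mL by stock and volumes)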 | 0.13% of 84,000 active | AID 602314;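 active means above 50% in either of two replicates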;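 further: 0% = protein plus DNA without compound and 100% = DNA alone without protein; higher means less MgrA bound to DNA so lower polarization; one replicate is shown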
# Sa helicase inh = S. aureus DNA helicase inhibition. AID 485395. inhibition, %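 (tested at about 80 µM)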. 0.05% of 120,000 active. purified S. aureus helicase, fluorescence unwinding assay; about half of the hits fall short of the stated cut;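 active means both duplicates at 50% or more, or one of them with a favoured structure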;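 further: 0% = mean of negative control wells and 100% = mean of positive control wells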
# * = called active by the depositor; i = inactive; x = no result given; & = joins results of further samples. Not all compounds are listed. The share of hits here may be higher or lower than overall.
SMILES,MgrA DNA FP,Sa helicase inh
COc1ccc(C2Nn3c(nnc3-c3ccccc3)SC2C(=O)Nc2ccccc2)cc1 (stereo not drawn),x,-16
CCOC(=O)c1cnc(SCC(=O)Nc2ccccc2)nc1N,x,-18
O=C(Nc1cc(Oc2ccc3c(c2)CCC3)cc([N+](=O)[O-])c1)c1cnn2c1NC(c1ccco1)CC2C(F)(F)F (stereo not drawn),-0.8,x
Cn1nc(CC(=O)N2CCCN(S(=O)(=O)c3ccc(F)cc3)CC2)c2ccccc2c1=O,x,-2
CC(CN1CCCC1)OC(=O)COc1ccccc1 (stereo not drawn),-4.4,4
O=C(c1cc2ccccc2oc1=O)N(Cc1ccc(F)cc1)C1CC1,4.5,4
Cc1cccc(NC(=S)NC2CCCC2)c1,-0.8,-6
COC(=O)c1ccc(CSc2nccc(=O)[nH]2)cc1,x,22
Cc1c(C(=O)Nc2ccncc2)oc2ccccc12,1.1,-3
Clc1ccc(OCc2nc3ccccc3n2CN2CCOCC2)cc1,x,-13
CN(CC(=O)Nc1ccc2[nH]c(=O)[nH]c2c1)c1ccc2ccccc2c1,x,0
CSC1=N/C(=C\c2cccnc2)C(=O)N1c1ccccc1,x,-36
Cc1ccccc1-c1nnn(CC(=O)NC(=O)NC(C)C)n1,x,-11
CCOC(=O)c1[nH]c(C)c(/C=N/O)c1C,0.8,0
N#Cc1c(SCC(N)=O)nc2c(c1-c1ccc(O)cc1)CCCC2,x,1
O=[N+]([O-])c1cc(C(F)(F)F)c(Sc2ccccn2)cc1Sc1ccccn1,-0.2,x
CC(C)(C)c1nnc2sc(SC/C(O)=C(\C#N)c3nc4ccccc4[nH]3)nn2c1=O,x,-20
CCOC(=O)CSc1cn(Cc2ccc(Cl)cc2)c2ccccc12,0.3,2
CCOC(=O)c1cccc(NCN2C(=O)c3ccccc3C2=O)c1,x,34
CC(=O)n1nccc1-c1c(C)nc2ccccn12,-1.3,x
CC(=O)NCc1ccc(C(=O)COC(=O)c2oc3ccc(Br)cc3c2C)o1,x,1
c1nc(NCCc2ccsc2)c2nc3n(c2n1)CCCCC3,-3.2,4
COC(=O)c1sc(SC)c(-c2ccn(S(=O)(=O)c3ccc(Cl)cc3)n2)c1C,-1.6,x
Cc1ccc(S(=O)(=O)NCC2CCC(C(=O)O)CC2)cc1 (stereo not drawn),x,6
Cc1nc(COC(=O)Cc2coc3cc4c(cc23)CCC4)cs1,x,22
# (listing goes on)
SMILES,MgrA DNA FP,Sa helicase inh
O=C(/C=C\Nc1ccc(OC(F)(F)F)cc1)c1ccc(F)cc1,-2.8,x
CSc1c(CC(=O)NN)n(C)c2ccccc12,-0.3,4
CC(C)C(Sc1nnc2sc3ccccc3n12)C(=O)NC(N)=O (stereo not drawn),x,17
COC(=O)c1ccc(COC(=O)c2ccc(S(=O)(=O)C(F)F)cc2)o1,x,5
CCOC(=O)N1CCC(Nc2nc(-c3ccccc3)no2)CC1,x,1
COC(=O)C1=C(C)NC2=C(C(=O)CC(C)(C)C2)C1c1ccc(OC(=O)c2ccc(Cl)cc2)c(OC)c1 (stereo not drawn),5.5,x
CCC(C)NC(=O)C(C)n1sc2ccccc2c1=O (stereo not drawn),0.1,-9
COc1ccc(C(=O)Cn2cc([N+](=O)[O-])nc2C)cc1,0.7,x
O=C(COc1ccc2c(c1)[nH]c1ccccc12)NC1CC1,x,-10
COc1ccc(-c2nc(SCC(=O)N(C3CCCCC3)C3CCCCC3)n[nH]2)cc1,-1.9,5
Cn1c(N)c(C(=O)N/N=C/c2ccccc2)sc1=S,x,-7
CCOC(=O)c1c2c3c(cccc3[nH]c1=O)C(=O)c1ccccc1-2,x,-75
O=C(Nc1ccc2nn(-c3cccc(Cl)c3)nc2c1)c1ccco1,x,5
CCOC(=O)CSc1nnnn1-c1ccc2c(c1)OCO2,x,8
CCOc1ccc2c(c1)C(C)=CC(C)(C)[N+]2(C)C,-2.3,-8
Cc1nc2c(C(=O)N3CCOCC3)c[nH]n2c(=O)c1Cc1ccc(F)cc1Cl,-1.6,0
COc1ccc(NC(=S)N/N=C/c2ccc(N3CCOCC3)o2)cc1,x,-28
Cc1ccc(SCc2noc(-c3c(C)noc3C)n2)cc1,-0.1,x
CN(C)c1ccc(C2Nc3ccccc3NC3=C2C(=O)CCC3)cc1 (stereo not drawn),x,-33
COc1ccccc1Oc1ccccc1[N+](=O)[O-],0.3,x
O=C(Cn1cnc2sc(-c3ccccc3)cc2c1=O)N1CCCC1,1.4,7
Fc1c(F)c(F)c(OC(c2ccccc2)C(F)(F)F)c(F)c1F (stereo not drawn),0.5,4
CCN1CCN(C(=O)c2ccc(CS(=O)(=O)Cc3ccccc3F)o2)CC1,-0.6,7
CCOc1cccc(C(=O)Oc2cccc3ccc(C)nc23)c1,-0.3,6
O=C(Cn1c(=O)sc2ccccc21)Nc1nncs1,x,-3
# (listing goes on)
SMILES,MgrA DNA FP,Sa helicase inh
Cn1c(N)c(C(=O)COC(=O)[C@@H]2CCCN2S(=O)(=O)c2ccc(Cl)cc2)c(=O)n(C)c1=O,x,-14
O=C(COC(=O)Cn1nc(-c2ccccc2)oc1=O)Nc1ccc(F)cc1,x,8
COc1ccc(CCNc2ccc(C(F)(F)F)cc2N)cc1OC,0.9,x
CCOc1ccc(N(CC)S(=O)(=O)c2c(C)[nH]c(=O)[nH]c2=O)cc1,x,31
COc1ccc(N(CC(=O)N2c3ccccc3CC2C)S(=O)(=O)c2c(C)noc2C)cc1 (stereo not drawn),x,-2
C=CCn1c(C(C)NC(=O)c2ccccc2Cl)n[nH]c1=S (stereo not drawn),-1.4,15
O=C(CCc1nc(-c2cccs2)no1)Nc1c(C(=O)N2CCN(c3ncccn3)CC2)oc2ccccc12,x,14
CC1CN(CCC(=O)Nc2ccc(Cl)c(C(F)(F)F)c2)CC(C)O1 (stereo not drawn),x,-12
COc1ccccc1C(=O)N(CCCN1C(=O)c2cccc3cccc(c23)C1=O)c1ccccc1OC,2.0,x
Cc1cc(C)nc(SCC(=O)C(C)(C)C)n1,1.3,-2
O=C(c1ccc(Cl)cc1)N1CCCC1,-1.8,6
CS(=O)(=O)N(Cc1nnc(-c2cccs2)o1)c1ccc(Cl)cc1F,x,-13
CC1=N/C(=C\c2ccccc2)C(=O)O1,-1.5,x
COc1ccc(C2C(C(=O)Nc3cccc(OC)c3)CCC(=O)N2c2ccc(OC)cc2)cc1 (stereo not drawn),x,12
CC(C)CNC(=O)CCn1cnc2onc(-c3ccc(F)cc3)c2c1=O,x,-14
COc1ccccc1C(=O)NCCC(=O)Nc1cc(C(N)=O)cc(C(N)=O)c1,x,-8
O=C(N/N=C/c1ccc2c(c1)OCO2)C1CC1C(=O)N/N=C/c1ccc2c(c1)OCO2 (stereo not drawn),x,-26
N=C1/C(=C\c2coc3ccccc3c2=O)C(=O)N=C2SC=NN12,17,i
O=C(Nc1ccccc1)N1CCN2C(=O)c3ccccc3C12c1ccccc1 (stereo not drawn),0.7,7
COc1ccc(Cl)cc1S(=O)(=O)NC1CCCCC1,x,-23
O=C(NCc1csc(-c2ccccc2)n1)c1cc(F)cc2c1OCOC2,-3.8,x
COc1ccc(/C=C2\N=C(c3ccc(Br)cc3)OC2=O)cc1OC(C)=O,-0.6,x
CCN(CC)CCC(=O)c1ccc(OC(C)C)cc1,8.1,-3
COc1ccccc1CNc1nc2ccccc2n1C(C)C,x,10
O=C(Cn1c(=O)c2cccn2c2ccccc21)NCCc1ccc(Cl)cc1,0.2,-1
# Remaining list, next part:
SMILES,MgrA DNA FP,Sa helicase inh
O=C(O)c1ccc2c(c1)CCCC2,-5.6,2
Nc1cc(=O)nc(SCC(=O)NC2CCCCC2)n1-c1ccccc1,x,13
CCOc1cc(C(=O)OCC(=O)Nc2ccccc2Cl)ccc1OCC(=O)N1CCOCC1,x,5
COC(=O)c1ccc(C=C(C#N)C#N)n1-c1ccc(F)cc1,x,-18
COc1ccc(C)cc1NCC(=O)Nc1ccc2c(c1)OCO2,x,11
Cc1nc(N)[nH]c(=O)c1Oc1ccccc1,-1.4,6
O=C1CCCN1CN1CCCCC1,0.8,5
Cn1ccnc1C(=O)c1ccc(Cl)c(S(=O)(=O)N2CCCCCC2)c1,x,8
O=Nc1[nH]c(O)c2cc(Br)ccc12,0.5,15
Cc1cc(C)c2nc3s/c(=C/c4ccc(Br)c([N+](=O)[O-])c4)c(=O)n3c2c1,0.4,x
Cc1cc(-c2c(C(=O)Sc3ccccc3)c(C)nn2-c2cccc(C(F)(F)F)c2)no1,x,-11
N#CCOc1ccc2c3c(c(=O)oc2c1)CCC3,x,-8
Cc1nn(C)c2nc(-c3cccs3)cc(C(F)(F)F)c12,-1.8,-16
COc1cc(/C=C/C(=O)OCC(=O)N2C(C)CCCC2C)ccc1O (stereo not drawn),x,-16
CC(C)(C)n1nc2c(c1NC(=O)Cc1ccccc1)CS(=O)(=O)C2,x,-18
CC1(C)SC(c2ccccc2)NC1C(=O)O (stereo not drawn),2.8,x
Cc1ccc(C(=O)Sc2nc(C)cc(C)n2)cc1,x,4
Cc1cc(C)c(C(=O)O)c(=O)[nH]1,-1.5&-1.2,19&3
Cc1cc2c(c(=O)n1CCCn1ccnc1)C(c1ccccc1)C(C#N)=C(N)O2 (stereo not drawn),-0.2,8
NC(=O)c1c(NC(=O)CN2C(=O)/C(=C\c3c(Cl)cccc3Cl)SC2=S)sc2c1CCCC2,0.0,x
CC(NCc1cccs1)C12CC3CC(CC(C3)C1)C2 (stereo not drawn),1.8,-8
Cn1c(SCC(=O)c2ccc(Cl)cc2)nnc1SCC(=O)c1ccc(Cl)cc1,-0.9,x
O=C(Cc1ccccc1)Nc1nnc(-c2ccc(Br)cc2)s1,x,-1
O=C(O)c1c(CNCCc2ccco2)c2ccccc2n1Cc1ccccc1,x,-12
Cc1ccc(S(=O)(=O)n2c(=O)sc3ccccc32)cc1,1.6,6
# Going on with the list:
SMILES,MgrA DNA FP,Sa helicase inh
N#CC1=C(N)/C(=C\c2ccc(Cl)c(Cl)c2)SC1=N,8.8,-112
COC(=O)CC1SC(=O)NC1=Nc1ccc(C)cc1 (stereo not drawn),x,4
COc1cc2c(cc1OC)-c1c(C#N)c(-c3ccc4c(c3)OCO4)c(C(=O)c3ccccc3)n1CC2,x,14
CN(C(=O)COC(=O)c1cc(S(=O)(=O)N2CCOCC2)ccc1O)c1ccccc1,x,7
COc1ccc(C2CC(=O)NC(SCC(=O)N3CCc4ccccc4C3)=C2C#N)cc1 (stereo not drawn),x,23
COC(=O)c1ccc(COC(=O)c2ccc(OCc3c(C)noc3C)cc2)cc1,x,-14
Cc1cc(Oc2cc(Cl)cc(Cl)c2)nc(-c2ccccn2)n1,3.5,x
Cc1cc(C(=O)CO/N=C/c2ccco2)c(C)n1-c1ccc(OC(F)F)cc1,x,8
Cc1ccc(S(=O)(=O)Nc2c(C)nn(C)c2C)cc1,-0.2,6
CC(=O)Nc1cccc(OC(=O)c2ccoc2C)c1,0.7,-4
CCOC(=O)c1sc(SC)c2c1CCCC21SCCS1,2.2,x
CCCN(CC(=O)Nc1cc(C)on1)S(=O)(=O)c1cccc(C(F)(F)F)c1,x,9
CS(=O)(=O)NC(c1ccccc1)c1ccccc1,-0.9,3
Cc1c(CCNC(=O)c2cc(S(=O)(=O)N(C)C)c(Cl)cc2Cl)c2ccccc2n1C,0.3,0
CC[C@H](C)C(=O)O[C@H]1C[C@@H](C)C=C2C=C[C@H](C)[C@H](CC[C@@H]3C[C@@H](O)CC(=O)O3)[C@H]21,0.7&-1.3&1.2,x
CCOC(=O)c1ccc(N2CCOCC2)c(NC(=O)c2c(-c3c(Cl)cccc3Cl)noc2C)c1,-1.2,x
Cc1cc(=O)[nH]c(N/N=C/C2=C(N3CCOCC3)C(=C\c3ccc(Cl)cc3)/CC2)n1,x,-8
COc1ccc(-c2nnc3sc(NC(C)=O)nn23)cc1OC,x,-6
Cc1cc(C=Nc2ccc(Cl)cc2O)c(C)n1C,3.3,3
O=S1(=O)c2ccccc2Nc2ccccc21,x,1
O=C(O)C1OCCc2ccccc21 (stereo not drawn),-0.8,11
NC(=O)c1sc2nccc(Nc3ccccc3)c2c1N,3.6,-4
O=C(Nc1ccc(S(=O)(=O)N2CCCCC2)cc1)C1CC1,x,11
CC1=C(C#N)C(c2cccnc2)C2=C(CC(C)(C)CC2=O)N1 (stereo not drawn),x,-24
